quorum sensing = Vibrio cholerae quorum sensing activators, luminescence (AID 686977). V. cholerae quorum sensing reporter, luminescence, 6 h; higher luminescence means a stronger effect; most inactives read 0. luminescence at 50 µM unless noted, or EC50 in µM where a hit was titrated. 9,400 tested, under 10 active;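 active = light above mean plus 3 SD and confirmed in a dose series; inconclusive = above that limit without a clear retest; inactive = below it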;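 note: raw light counts without normalisation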
An asterisk follows results filed as active; ? = inconclusive; [ ] = dose if it differs, or a comment.

Structure | quorum sensing
CC1=C(C(=O)OC(C)C)C(c2cccnc2)n2ncnc2N1 (stereo not drawn) | 0
COc1ccc(C(C)N2CC34C=CC(O3)C(C(=O)OCC(C)C)C4C2=O)cc1 (stereo not drawn) | 0
Cc1ccc2c(c1)nnn2C1CCN(CC(=O)NCCc2nc3ccccc3[nH]2)CC1 | 40
O=C(N/N=C/c1cccn1-c1ccc([N+](=O)[O-])cc1)C(O)c1ccccc1 (stereo not drawn) | 40
CCCCOc1ccc(NC2=NC3(CCCC3)N=C(N)N2)cc1 | 0
CC(=O)c1sc(NC(=O)c2ccccc2F)nc1C | 80
Cn1c(=O)c2[nH]cnc2n(C)c1=O | 320[10 µg/mL]
Cn1c(=O)[nH]c(=O)c2c1nc(SCC(=O)Nc1ccccc1)n2Cc1ccccc1 | 0
CN(CC(=O)NC1CCCCC1)S(=O)(=O)c1cccc2cccnc12 | 80
O=C(NCc1ccco1)c1cnc2sccn2c1=O | 0
CC(=O)c1c(Nc2ccc3c(c2)OCCO3)oc(C)cc1=O | 40
COc1ccc(N2CCN(C(=O)Cc3cccs3)CC2)cc1 | 0
CCN(CC)C(=O)Cn1c(=O)n(-c2ccccc2)c(=O)c2c3c(sc21)CCC3 | 40
CCC(=O)NCCc1cc2ccc(C)c(C)c2[nH]c1=O | 0
Nc1nnnn1/N=C/c1ccccc1C(F)(F)F | 40
CN1C(=O)C(O)(CC(=O)c2ccc(F)cc2)c2cc(Br)ccc21 (stereo not drawn) | 0
Cc1cc(C)cc(Nc2cc(C)nc3nc(C)nn23)c1 | 0
Cc1nnc(NC(=O)CSCc2ccccc2)s1 | 240
CCOC(=O)C1C(=O)OC2(CCCCC2)C1C(=O)OCC (stereo not drawn) | 0
Nc1ccc2nc(-c3ccc(Cl)cc3)[nH]c2c1 | 0

4 of the compounds above, as labelled records.
> CCOC(=O)C1C(=O)OC2(CCCCC2)C1C(=O)OCC (stereo not drawn)
- quorum sensing: 0

> Cn1c(=O)[nH]c(=O)c2c1nc(SCC(=O)Nc1ccccc1)n2Cc1ccccc1
- quorum sensing: 0

> Cc1cc(C)cc(Nc2cc(C)nc3nc(C)nn23)c1
- quorum sensing: 0

> CN(CC(=O)NC1CCCCC1)S(=O)(=O)c1cccc2cccnc12
- quorum sensing: 80

More entries:
Structure | quorum sensing
O=C(CN1CCN(c2ccccn2)CC1)NCc1cccs1 | 0
CCCCN(CC)CCNc1c(NC2CCN(C(=O)OCC)CC2)c(=O)c1=O | 40
C=CCn1c(SCc2cccc(C#N)c2)nnc1-c1ccccc1O | 360
Cc1cccc(N2CCN(C(=O)CN3CCOc4ccccc43)CC2C)c1 (stereo not drawn) | 0
CN(C)S(=O)(=O)c1cccc(NC(=O)COC(=O)CCc2nc3ccccc3s2)c1 | 0
Cc1c(C(=O)N(C)C)sc2nc(-c3ccccn3)[nH]c(=O)c12 | 0
O=P(c1ccccc1)(c1nc2ccccc2s1)N1CCOCC1 (stereo not drawn) | 40
Cc1nnc(NC(=O)CSc2nccn2-c2cccc(C)c2C)s1 | 0
CCOC(=O)N1CCC(Nc2c(NCCCN(C)Cc3ccccc3)c(=O)c2=O)CC1 | 40
Cc1ccc(N(C(=O)c2ccncc2)C2C=CS(=O)(=O)C2)cc1 (stereo not drawn) | 0
COc1ccc([C@@H]2CC(=O)c3c(O)cc(O[C@@H]4O[C@H](CO[C@@H]5O[C@@H](C)[C@H](O)[C@@H](O)[C@H]5O)[C@@H](O)[C@H](O)[C@H]4O)cc3O2)cc1O | 240[10 µg/mL]
O=c1c2c(nc3c(-c4cccc5ccccc45)c[nH]n13)CCC2 | 0
CC(C)N=c1cc2n(-c3ccc(Cl)cc3)c3ccccc3nc-2cc1Nc1ccc(Cl)cc1 | 0[10 µg/mL]
CC(C)(C)NC(=O)Nc1ccccc1C(N)=O | 0
Cc1nccn1CC1CCc2c(c3ccccc3n2C)C1=O (stereo not drawn) | 40[10 µg/mL]
O=c1c2ccccc2nnn1CSc1nnc(-c2cccnc2)n1-c1ccccc1F | 0
Cc1nc(CCNC(=O)COc2ccccc2)cs1 | 0
COC(=O)CSc1nc(NC(C)=O)nc(C)c1Br | 0
CCOC(=O)C1=C(C)N(C)C(=O)NC1c1ccccc1OC (stereo not drawn) | 0
COc1ccc(NC(=O)CSc2nnc(C3CCCCC3)n2-c2ccccc2)cc1 | 0
Cc1cccc2cc(CN(Cc3cccs3)Cc3nnnn3Cc3ccccc3)c(=O)[nH]c12 | 0
OC(COc1ccc2ccccc2c1)CN1CCN(c2ccc(F)cc2)CC1 (stereo not drawn) | 40
NS(=O)(=O)c1cc2c(cc1Cl)NC=NS2(=O)=O | 0[10 µg/mL]
CCc1cccc(CC)c1N(COC)C(=O)Cn1c(CO)nc2ccccc21 | 40
Cc1cccc(NC(=O)C2CCCN(S(=O)(=O)c3cccc4cccnc34)C2)c1 (stereo not drawn) | 0
CC(=O)c1ccc(OCC(O)CN2C(C)CCCC2C)cc1 (stereo not drawn) | 40
Cc1sc2ncnc(SCC(=O)N3CCC(c4noc5ccc(F)cc45)CC3)c2c1C | 0
CCCOc1cc(C)c(S(=O)(=O)N2CCN(C)CC2)cc1C | 40
O=C1CCCC/C1=C\Nc1ccc(Cl)cn1 | 0
CCOC(=O)/C=c1\sc2n(c1=O)CCN=2 | 0
Cc1ccc(N(C(=O)c2ccc(Br)o2)C2C=CS(=O)(=O)C2)cc1 (stereo not drawn) | 0
CCOC(=O)c1ccc(OC(=O)CCCCCN=C(N)N)cc1 | 40[10 µg/mL]
O=C(Cc1ccccc1)NCC(=O)OCC(=O)c1ccc(OC(=O)c2ccccc2)cc1 | 0
CC1CCC(=C(C#N)c2nc(-c3cc4ccccc4oc3=O)cs2)CC1 (stereo not drawn) | 40
CCS(=O)(=O)N1CCCC(C(=O)NCc2cccc(OC)c2)C1 (stereo not drawn) | 40
COC(=O)C(C#N)C(=C1C(=O)CC(C)(C)CC1=O)c1ccc(O)cc1 (stereo not drawn) | 0
COc1ccc(CCNC(=O)CSc2nnnn2-c2ccccc2OC)cc1OC | 40
COC(=O)c1cncc(O)c1 | 0
COc1cccc(Nc2ncnc3nc[nH]c23)c1 | 0
Cc1ccc(C(=O)N2CCCC2)c(F)c1F | 0
COc1nc(C)nc2c1sc(=S)n2C | 40
O=S(=O)(c1ccc(Cl)cc1)c1snnc1-c1ccccc1 | 40
CS(=O)(=O)Nc1ccc(C(=O)NCCc2ccccc2)cc1 | 0
CCOC(=O)N1CCC(N2C(=O)c3ccccc3C2Nc2ccccc2C)CC1 (stereo not drawn) | 0
COc1ccc(C(=O)NCCn2ccc3ccccc32)cc1OC | 0
CCOC(=O)N1CCC(N2Cc3cccc(C(=O)NCc4ccccn4)c3C2=O)CC1 | 40
CCN(CC(=O)NCc1ccc(F)cc1)C(=O)C1CCN(C(=O)Nc2ccccc2)CC1 | 160
COc1ccc2nc(NC(=O)C3COc4ccccc4O3)sc2c1 (stereo not drawn) | 40
Cc1nc(NC(=O)COc2ccccc2)sc1C(=O)Nc1ccccc1 | 40
C/C(=N\N=C(/N)SC1CC(=O)N(c2ccc(Cl)cc2)C1=O)c1cccs1 (stereo not drawn) | 40
CCC(Cc1ccccc1)NC(=O)CN(C)S(=O)(=O)c1ccc2c(c1)c(=O)n(C)c(=O)n2C (stereo not drawn) | 40
COC(=O)CNC(=O)C1CCCN1C(=O)CNC(=O)OC(C)(C)C (stereo not drawn) | 0
CCn1cc(C(=O)O)c(=O)c2ccc(C)nc21 | 40[10 µg/mL]
O=S(=O)(c1ccc(F)cc1)N1CCC(N2CCCC2)CC1 | 0
CC(=O)Oc1ccc(C(c2ccc(OC(C)=O)cc2)c2ccccn2)cc1 | 40[10 µg/mL]
Cn1cccc1Cc1nnc(SCC(N)=O)n1-c1ccc(F)cc1 | 800
O=C(O)CCSc1nnc(-c2ccc3c(c2)OCO3)o1 | ?
O=c1[nH]oc2c1CCNC2 | 40[10 µg/mL]
C[C@H](N)[C@H](O)c1ccc(O)c(O)c1 | 40[10 µg/mL]
CCCCCCCCCC(=O)N/N=C/c1ccc(C)s1 | 40

Going on with the list:
Structure | quorum sensing
COc1cccc(C(=O)Nc2nc(-c3ccc4c(c3)OCO4)cs2)c1 | 0
COc1cccc(C(=O)Nc2cc(C(=O)NCCc3ccccc3)ccc2Cl)c1 | 0
O=C(Nc1nnc(-c2cccs2)o1)c1ccco1 | 0
C/C=C1/C[N+]2(C)CCC34C(=C(C=O)[C@H]1C[C@@H]32)Nc1ccccc14 (stereo partly drawn) | 240[10 µg/mL]
Cc1nc2ccc(S(=O)(=O)NC(C(=O)NCc3ccco3)C(C)C)cc2s1 (stereo not drawn) | 240
CCN(CC)c1ncnc2c1[nH]c1ccccc12 | 40
Oc1ccc2c3c1O[C@H]1[C@@H](O)CC[C@@]4(O)[C@@H](C2)N(CC2CCC2)CC[C@]314 | 0[10 µg/mL]
O=C(CN1C(=O)c2ccccc2C1=O)OC(C(=O)c1ccc(Cl)cc1)c1ccccc1 (stereo not drawn) | 0
Cn1c(=O)c2c(SCC(=O)N3CCOCC3)nc(CC(C)(C)C)nc2n(C)c1=O | ?
COc1ccc(N/C=C(/C(C)=O)c2ccccc2)cc1 | 0
CCOC(=O)c1[nH]c2ccccc2c1NC(=O)c1ccc2c(c1)OCO2 | ?
CCOC(=O)C1=C(C)NC(=O)C(C(N)=O)C12CCCC2 (stereo not drawn) | 0
COC(=O)c1ccc(-c2nn(C)c(=O)c3ccccc23)cc1 | 0
COc1ccccc1NC(=O)CSc1nnc(-c2ccccc2)o1 | 0
COc1cc2nc(N3CCN(C(=O)C4CCCO4)CC3)nc(N)c2cc1OC (stereo not drawn) | 0[10 µg/mL]
COc1cccc(C2=N/C(=C\N(C)C)C(=O)O2)c1 | 280
Cc1ccc(C)c(NC(=O)CS(=O)(=O)c2c[nH]c3ccccc23)c1 | 80
O=C(Nc1ccc(F)cc1F)N1CCN(c2ncccn2)CC1 | ?
COc1ccc(-c2nc(CSCC(=O)NCc3ccc4c(c3)OCO4)c(C)o2)cc1OC | 0
CCC1CCCCN1C(=O)CSc1nc2c(cnn2-c2ccc(C)cc2)c(=O)[nH]1 (stereo not drawn) | 0
OC(Cn1ccnc1)c1ccc(Cl)cc1Cl (stereo not drawn) | 0
COc1cc2c(C(=O)NCc3ccccn3)cn(C)c(=O)c2cc1OC | 0
C=CCNc1oc(Cc2cccc3ccccc23)nc1C#N | 0
Brc1ccc(Oc2nnnn2-c2ccccc2)cc1 | 0
O=C(NCc1ccco1)Nc1ccc(Br)cc1 | 0
CCn1c(SCC(=O)Nc2ccccc2C(=O)OC)nnc1-c1cccc(C)c1 | 280
COCCNc1nc2ccccc2nc1NS(=O)(=O)c1ccc(C)cc1C | 0
CCOC(=O)N1CCN(C(=O)C2CC(c3ccc(F)cc3)=NO2)CC1 (stereo not drawn) | 40
O=C(Cn1c(-c2ccccc2)noc1=O)NCc1ccccc1 | 0
NNC(=O)c1ccncc1 | 0[10 µg/mL]
CC[C@H]1C2C[C@H]3[C@@H]4N(C)c5ccccc5C45C[C@H](C2[C@H]5O)N3[C@@H]1O (stereo partly drawn) | 0[10 µg/mL]
Cc1ccc(C)c(-n2nnnc2SCC(=O)Nc2cccc(-c3nnc4n3CCCCC4)c2)c1 | 0
O=C(NCc1ccco1)C1CCCN(S(=O)(=O)c2cccc3cccnc23)C1 (stereo not drawn) | 40
COc1ccc(OC)c2c1sc(=NC(=O)C(C)C)n2C | 40
O=S(=O)(c1cc(Cl)cc(Cl)c1)N1CCCC1c1nc2ccccc2s1 (stereo not drawn) | 0
COc1ccc2nc(NC(=O)CN3CCN(C)CC3)sc2c1 | 0
CCCCc1ccc(NC(=O)c2c(C)noc2C)cc1 | 40
COc1ccc2[nH]c(=O)c(CN(CCN(C)C)C(=O)NCc3ccccc3)cc2c1 | 0
O=C1C2CC=CCC2C(=O)N1c1ccc(OCC(O)Cn2nnc3ccccc32)cc1 (stereo not drawn) | 40
COc1ccc(NC(=O)c2cc(F)cc(F)c2)cc1Cl | ?
CCOC(=O)c1ccc2c(c1)nc(COc1ccc3ccccc3c1)n2CC | 40
O=S(=O)(c1ccc(F)cc1)n1ccc2cccnc21 | 0
Cn1c(=O)oc2cc(S(=O)(=O)N3CCCc4ccccc43)ccc21 | 40
O=C(Nc1nc(-c2nc3ccccc3s2)cs1)c1ccc(S(=O)(=O)N2CCOCC2)cc1 | 0
CCC(=O)N1CCCc2cc(S(=O)(=O)N3CCN(c4ccccc4F)CC3)ccc21 | 0
CC(C)CC(NC(=O)C1CCC(C)CC1)C(=O)N1CCN(c2ccccn2)CC1 (stereo not drawn) | 0
CCCC(=O)Nc1ccc(Br)c(Cl)c1 | 0
COC(=O)CSc1nc(N)c(NC(=O)c2ccc(OC)c(OC)c2)c(=O)[nH]1 | 0
Cc1c(NC(=O)CSc2ccc3c(c2)OCCO3)c(=O)n(-c2ccccc2)n1C | 0
COC(=O)c1ccsc1NC(=O)C1COc2ccccc2O1 (stereo not drawn) | 40
COc1ccc(OC)c(NC(=O)C(=O)N/N=C/c2ccccc2[N+](=O)[O-])c1 | 80
N#CC1(c2ccccc2)CCCN1C(=O)c1ccccc1Cl (stereo not drawn) | 0
Cc1ccc(S(=O)(=O)NCc2cn3ccsc3n2)c(C)c1 | 0
CCC(C)NCCCCOc1ccc(C)cc1[N+](=O)[O-] (stereo not drawn) | 0

Given as labelled records: 4 of the compounds above.
compound: Cc1c(NC(=O)CSc2ccc3c(c2)OCCO3)c(=O)n(-c2ccccc2)n1C
  quorum sensing: 0

compound: COC(=O)CSc1nc(N)c(NC(=O)c2ccc(OC)c(OC)c2)c(=O)[nH]1
  quorum sensing: 0

compound: N#CC1(c2ccccc2)CCCN1C(=O)c1ccccc1Cl (stereo not drawn)
  quorum sensing: 0

compound: CCC(=O)N1CCCc2cc(S(=O)(=O)N3CCN(c4ccccc4F)CC3)ccc21
  quorum sensing: 0

Compound activity deposited in PubChem BioAssay by Southern Research Specialized Biocontainment Screening Center.

A portion of the library, so the mix of outcomes need not match the whole.
